HNF4A DNA FP: change in binding of human HNF4 alpha to DNA; HNF4a-FITC DNA binding, fluorescence polarization, 1 h; activity change, % at 10 µM; actives 0.3% (n = 360,000); AID 1224865; in the data active = activity change above about 30%, passing the limit was not always enough;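 also: controls were the assay level and a saturating level of protein; the project sought stronger binding though the title names inhibitors; some compounds called inactive have numbers as strong as hits; positive values seem to mean higher polarization but the record does not say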
Target sequence (P41235 whole entry, looked up): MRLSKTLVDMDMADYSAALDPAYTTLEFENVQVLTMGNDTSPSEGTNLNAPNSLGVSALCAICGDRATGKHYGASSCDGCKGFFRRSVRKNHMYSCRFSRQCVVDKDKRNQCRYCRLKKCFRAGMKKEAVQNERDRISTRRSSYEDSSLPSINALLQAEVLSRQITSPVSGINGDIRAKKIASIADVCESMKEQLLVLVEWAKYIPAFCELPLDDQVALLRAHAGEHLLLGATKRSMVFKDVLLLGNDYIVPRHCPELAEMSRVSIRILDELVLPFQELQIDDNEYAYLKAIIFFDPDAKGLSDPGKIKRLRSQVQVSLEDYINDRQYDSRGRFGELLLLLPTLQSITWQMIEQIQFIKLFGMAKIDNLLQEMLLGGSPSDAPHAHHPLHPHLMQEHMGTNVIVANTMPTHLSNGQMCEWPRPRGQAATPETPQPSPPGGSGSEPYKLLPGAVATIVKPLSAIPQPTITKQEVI
B2AR ag: activates human beta-2 adrenergic receptor causing internalization. P07550. Am2.2-beta2AR cells, FAP receptor internalization, flow cytometry; reference of the scale not given here. response, % (no concentration beside the values). actives 0.43% (n = 340,000). AID 504454;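 active = response above a set limit, near 3 SD of response in nonfluorescent compounds, cut at about 42% in these data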;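 also: stock transfer was 100 nL into about 11 µL; a reference agonist was the positive control; negative values mostly stem from fluorescent compounds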
Vif A3G: HIV-1 Vif–A3G interaction blockers – biochemical, TR-FRET, GST-Vif 1-94, biotin-A3G peptide, dose response retest, primary screen (AID 1117319). actives 0.57% (n = 260,000). inhibition, %; hits with a dose series show IC50 in µM. TR-FRET GST-Vif / biotin-A3G peptide binding; higher % means a stronger effect; test concentration not given here; strong numbers were not always called active;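 active = above the screen mean plus three standard deviations and confirmed in dose response; inconclusive = results disagree or hit not tested in dose response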;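 also: Vif residues 1-94 fused to GST binding biotinylated APOBEC3G peptide 110-148; 0% = full assay without inhibitor and 100% = GST in place of GST-Vif; retest series ran down from 100 µM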
E coli growth: blocks Escherichia coli growth; OD600, 23 h; stronger effect = lower value; OD600 absorbance (concentration not given with the values); actives 0.21% (n = 330,000); AID 1053175;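 active = OD600 absorbance below the run mean of sample wells minus 3.6 SD, in any replicate, cut at about 0.56 in these data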;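 also: stock transfer was 300 nL into about 60 µL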
UCH37 DUB inh: blocks the human deubiquitinase UCH37 | actives 0.33% (n = 330,000) | AID 588478 | Q9Y5K5 | purified proteasome/UCH37, Ub-AMC cleavage fluorescence | inhibition, % (test concentration not listed);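 active = mean of two replicates above 20%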;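 also: 0% = compound-free wells with enzyme and 100% = wells lacking proteasome; stock transfer was 100 nL into about 20 µL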
Target sequence (Q9Y5K5 whole entry, looked up): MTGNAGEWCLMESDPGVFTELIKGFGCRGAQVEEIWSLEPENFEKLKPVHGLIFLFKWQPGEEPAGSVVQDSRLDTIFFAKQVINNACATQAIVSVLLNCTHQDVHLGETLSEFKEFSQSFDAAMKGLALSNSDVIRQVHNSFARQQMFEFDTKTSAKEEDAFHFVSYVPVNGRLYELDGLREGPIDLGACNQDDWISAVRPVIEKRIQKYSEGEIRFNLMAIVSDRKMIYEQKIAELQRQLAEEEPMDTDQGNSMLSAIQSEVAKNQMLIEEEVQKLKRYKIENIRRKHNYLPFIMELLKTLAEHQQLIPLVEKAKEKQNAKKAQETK
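Schedule: 30 min plus 25 min, room temperature / Material: human UCH37 within purified proteasomes / Technique: AMC fluorescence intensity at 355/460 nm / Buffer or medium: pH 7.4 Tris-HCl (50 mM) with ovalbumin, ATP-MgCl2, DTT / Controls: wells without proteasome as full block, compound-free enzyme plus substrate as uninhibited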
A1 inh: inhibitors of the anti-apoptotic protein A1, read as caspase activation | actives 0.066% (n = 330,000) | MEF A1-2A-BIM cells, Caspase-Glo 3/7 luminescence, 3 h; percent of clofoctol response, vehicle zero | AID 2462 | caspase activation, % (concentration not given with the values);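 active = over half of replicate activation scores above 10%, or exactly half above 10 with the replicate mean above 10; inconclusive = replicate mean below 10 yet half the replicates above 10; inactive = over half of replicates below 10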;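 also: wells of about 30 µL received 50 nL stock; many hits fall short of the cut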
LANA-H2A inh: blocks KSHV LANA binding to histone H2A/H2B. Q9QR71. cell-free LANA-H2A/H2B peptide, fluorescence polarization. inhibition, % (test concentration not listed). actives 0.6% (n = 320,000). AID 2629; in the data active = inhibition mostly above about 10%, no sharp cut-off; inactive = mostly below about 6.7%;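 also: stock transfer was 7.5 nL into about 10 µL; 0% = median of vehicle wells and 100% = median of positive control wells; one replicate is shown; the record names a cut of 25% in any replicate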
Active calls of the source: *; i = inactive; ? = inconclusive; . = not tested or not shown; & = joins results of further samples.

SMILES	HNF4A DNA FP	B2AR ag	Vif A3G	E coli growth	UCH37 DUB inh	A1 inh	LANA-H2A inh
Cc1ccc(-c2nc(CN(C)C3CCOC3)c(C)o2)s1 (stereo not drawn)	0.7	3	.	0.61	-8.6	0.0	11
COc1ccc(C[C@H]2CN3C(=NC[C@@H]3Cc3ccc(O)cc3)N2C[C@H](C)NC(=O)CCC2CCCCC2)cc1	-0.8	5	.	.	2.0	0.5	2.7
COCCS(=O)(=O)N(Cc1ccc(Br)cc1)[C@@H](C)C(=O)OC	-2.7	-1	3%	0.71	2.7	.	.
CN=C1c2cc3cc(OC)ccc3n2CCN1C	-0.6	2	?	0.68	0.1	0.4	-3.0
COc1ccc(CCC(C)NC(=O)CCc2ccccc2)c(OC)c1 (stereo not drawn)	-0.7	0	0%	0.64	1.4	1.0	2.7
CCOc1ccccc1OCC(=O)OCC(=O)c1c(N)n(CC(C)C)c(=O)n(C)c1=O	1.4	34	-8%	0.65	2.8	-0.5	3.2
COc1ccc(/C(N)=N/OC(=O)CN(C)S(=O)(=O)c2ccc(C)cc2)cc1	-4.6	1	-4%	0.64	1.0	.	.
Cc1nc(-c2ccncc2)nc(NCCNc2ccc(C(F)(F)F)cn2)c1Cl	-2.5	-2	-4%	0.68	1.8	0.1	4.1
Cc1ccccc1NC(=O)C(=O)c1cn(C)c2ccccc12	1.4	-3	11%	0.77	-2.3	-3.0	-1.6
COc1ccc(NC(=O)N(C)C[C@H]2Oc3ccc(NC(=O)C4CC4)cc3C(=O)N([C@H](C)CO)C[C@@H]2C)cc1	-1.0	0	5%	0.64	9.2	0.2	i
COc1ccc(C(=O)c2ccc(OC)c(OC)c2)cc1OC	-1.9	-2	26%	0.7	9.4	-0.2	0.5
Nc1c(Cl)cnc(C(Cl)(Cl)Cl)c1Cl	1.3	-2	2%	0.6	5.0	0.8	4.4
Cc1nc(N2CCCCC2C)c2c(C)c(C(=O)Nc3cccc(C(F)(F)F)c3)sc2n1 (stereo not drawn)	-1.8	2	.	0.7	-70	0.1	-3.4
CCCc1nc(NCc2ccccn2)c2nnn(Cc3ccccc3F)c2n1	-1.0	-10	7%	0.74	1.1	-0.3	0.2
Cn1c(=O)c2c(SCC(N)=O)nc(CC(C)(C)C)nc2n(C)c1=O	-0.2	2	0%	0.78	4.6	0.8	1.2
CN(C(=O)CN1C(=O)/C(=C/c2ccc(Cl)cc2)SC1=S)C1CCS(=O)(=O)C1 (stereo not drawn)	1.9	-9	-4%	0.7	12	0.5	-1.4
CC(CN1CCCCC1)OC(=O)c1cccc(F)c1 (stereo not drawn)	3.6	3	-3%	0.67	0.4	0.6	1.8
Cc1ccccc1Cn1c(=O)[nH]c2ccccc21	3.9	-5	.	0.71	6.9	0.6	-0.4
FC(F)(F)c1cccc(N2Cc3ccccc3C2)c1	0.2	-2	6%	0.71	-1.3	-0.9	-5.5
Cc1nc2sc(C(c3cccs3)N3CCN(c4cccc(Cl)c4)CC3)c(O)n2n1 (stereo not drawn)	1.8	0	-3%	0.76	3.7	0.2	2.9
Cc1ccc(C(=O)Cn2nc(C)c([N+](=O)[O-])c2C)c(C)c1	-0.2	10	.	0.72	3.2	1.1	-4.4
N#Cc1ccccc1	3.6	-3	.	0.67	-1.4	0.7	-3.9
O=C1c2ccccc2[C@@H]2C[C@@H](O)[C@H](Nc3ccccc3)CCN12	7.6	0	2%	0.71	0.5	.	.
COCCCNC(=O)Cn1nc(-c2ccc(C)cc2)ccc1=O	-5.8	2	5%	0.64	-7.7	0.2	2.3
Cc1cc(C)c2[nH]c(=O)c(C(c3nnnn3Cc3ccc4c(c3)OCO4)N3CCCC3)cc2c1 (stereo not drawn)	1.3	2	28%&4%	0.78	3.1	-0.2	5.7
CN1CCCC(OC(=O)CCCCC(=O)OC2CCCN(C)C2)C1 (stereo not drawn)	1.5	5	-1%	0.66	7.2	0.5	1.8
Cc1ccnc(NC(=O)c2ccc(OCc3c(C)noc3C)cc2)c1	-1.9	0	-1%	0.69	1.6	.	.
CC(CC(=O)Nc1ccc2c(c1)OCO2)c1ccccc1 (stereo not drawn)	-0.1	0	12%	0.72	2.0	1.6	-3.1
CCCOC(=O)CC1C(=O)NCCN1Cc1cc(OC)cc(OC)c1 (stereo not drawn)	0.1	-14	.	0.7	-1.4	1.4	8.8
O=C(Cn1nnc(-c2ccccc2)n1)OCc1csc(-c2ccccc2)n1	-1.3	-6	-33%	0.75	3.6	2.1	-1.6
CC(=O)N(C)c1ccc(N=C2C(=O)Nc3ccccc32)cc1	2.5	-4	1%	0.69	0.5	0.8	-8.1
O=C1NCC(COc2ccc([N+](=O)[O-])cc2)O1 (stereo not drawn)	1.8	-3	-9%	0.64	3.3	0.7	-6.0
Cc1ccc(S(=O)(=O)N/N=C(\c2ccccc2)C2CC2)cc1	1.1	5	.	.	.	0.0	1.9
COCCOC1CCN(C(=O)c2ccc(OC)c(OC3CCN(C(C)C)CC3)c2)CC1	0.5	-4	.	0.72	4.7	1.7	3.7
CCOc1ccc(CC(=O)N/N=C/c2cccnc2)cc1	1.9	-5	-3%	.	.	0.3	-1.5
Cc1c(NC(=O)c2noc(C(C)C)c2[N+](=O)[O-])c(=O)n(-c2ccccc2)n1C	0.4	-3	3%	0.74	7.9	-0.3	3.8
CCCOc1ccc(C(=O)NNC(=S)NC(=O)c2cc(-c3ccc(Cl)cc3)nc3ccccc23)cc1	-2.2	10	12%	0.73	2.4	-0.8	-2.7
CCOc1ccc(OCC)c(NC(=O)C2C3C=CC(O3)C2C(=O)NCc2ccco2)c1 (stereo not drawn)	3.7	2	15%	0.75	3.0	0.5	3.9
Cc1ccc(C)c(NC(=O)C(Sc2nc3ccc(C)cc3[nH]2)c2ccccc2)c1 (stereo not drawn)	-6.3	5	12%	0.73	4.9	0.9	6.1
CC(C)CCn1cnc2c1c(=O)n(CC(=O)NC(N)=O)c(=O)n2Cc1ccccc1	3.9	4	.	0.69	1.8	-0.4	1.8
C/C(CC(=O)Nc1ccc(C)c(Cl)c1)=N\NC(=O)Cc1cccs1	0.1	-6	1%	.	.	-0.6	2.2
O=C1CCCC2=C1C(c1cccc(O)c1)C1=C(N2)c2ccccc2C1=O (stereo not drawn)	-0.2	-4	10%	0.76	7.1	0.4	-4.3
O=C(CC1(O)C(=O)Nc2ccccc21)c1ccccc1O (stereo not drawn)	3.4	2	1%	0.74	-4.0	2.5	-4.9
CC(C)C[C@H](NC(=O)c1[nH]cnc1C(=O)N[C@@H](Cc1ccccc1)C(=O)OC(C)(C)C)C(=O)OC(C)(C)C	-1.3	2	5%	.	2.3	0.1	-1.0
CC1(C)CC(=O)C=C(Nc2cccc(F)c2)C1	-3.1	6	8%	0.69	5.3	0.2	3.4
O=C(NCc1ccc(Cl)cc1)c1cccnc1	2.7	0	-3%	0.73	-0.7	0.6	1.3
O=C(COc1ccccc1F)N1CCN(S(=O)(=O)/C=C/c2ccccc2)CC1	-1.5	-5	.	0.67	4.9	0.5	-1.0
O=C(CCC(=O)N(c1cccc(F)c1)C(C(=O)NC1CCCC1)c1ccncc1)Nc1cccnc1 (stereo not drawn)	-0.6	-6	17%	0.7	2.4	-0.5	2.1
Cc1cc(C)cc(OCC(=O)Nc2nc(-c3ccccn3)cs2)c1	2.7	1	-20%	0.7	6.1	.	.
CCOC(=O)N1CCN(c2c(N3CCC(N4CCCCC4)CC3)c(=O)c2=O)CC1	4.7	-3	-9%	0.73	3.7	1.3	-1.2
New compounds follow
SMILES	HNF4A DNA FP	B2AR ag	Vif A3G	E coli growth	UCH37 DUB inh	A1 inh	LANA-H2A inh
Cc1ccc(NCC(=O)Nc2cccc(S(=O)(=O)N(C)C)c2)cc1S(=O)(=O)N1CCCCCC1	4.2	5	-1%	0.68	0.0	-1.0	-2.0
Cc1ccccc1-n1nc2c(c1NC(=O)COc1ccc(Cl)cc1)CS(=O)C2 (stereo not drawn)	-2.3	7	-4%	0.75	3.1	1.2	1.7
Cc1onc(-c2ccccc2)c1C(=O)N1CCN(Cc2ccc3c(c2)OCO3)CC1	-3.0	4	1%	0.71	1.1	1.2	-3.9
CCc1nnc(NC(=O)CCC(=O)N2CCN(Cc3cc(F)ccc3OC)CC2)s1	3.1	-5	-7%	0.75	2.4	0.0	-3.6
O=C(O)c1cc([N+](=O)[O-])ccc1N1CCC(Cc2ccccc2)CC1	4.2	3	13%	0.69	2.9	0.0	-5.6
COc1ccc(C)cc1NC(=O)COC(=O)c1ccc2c(c1)OCO2	-1.9	3	.	0.7	1.0	-1.0	-0.3
CCN(CC)CCCNC(=O)c1cc(Cl)c(NC(=O)C2=C(C)OCCS2)cc1OC	3.9	-13	-7%	0.68	4.6	-0.3	0.3
Cc1cc(=O)n2[nH]c(-c3ccccc3Cl)cc2n1	-0.9	5	5%	0.71	1.6	-1.1	5.0
NC(=O)C1CCN(C(=O)NC(=O)c2ccccc2)CC1	-1.6	3	1%	0.71	1.0	-0.2	3.3
O=C(NCCC(=O)N1CCC2(CC1)NCCc1[nH]cnc12)c1ccc(F)c(F)c1	-4.2	0	.	0.71	0.9	1.3	-3.0
CC(C)c1cc(C(F)(F)F)n2nc(C(=O)O)cc2n1	-1.2	-3	11%	0.66	4.3	-0.3	3.1
CCc1ccc(NC(=O)CSc2nc3ccccc3nc2N2CCCC2)cc1	1.6	0	.	0.81	-3.5	-0.1	1.3
Cc1cccc2cc(COC(=O)c3cccnc3)c(=O)[nH]c12	-4.4	-3	2%	0.73	2.9	-1.3	-2.8
CC(C)Sc1nc(N2CCOCC2)c2c(c1C#N)CC(C)(C)N(C)C2	-3.4	1	13%	0.77	0.9	1.4	-1.7
Cn1c(N)c(C(=O)Nc2ccccc2F)sc1=S	0.1	-5	3%	0.67	11	1.0	-3.6
COc1ccc(/C=C/C(=O)c2ccccc2)cc1Cn1nnc2ccccc21	-4.7	2	-12%	0.69	0.1	-0.2	-4.8
COc1ccc(Nc2nc(N)c([N+](=O)[O-])c(N3CCOCC3)n2)cc1	-1.7	4	24%	0.58	11	-1.1	-5.6
COc1ccc(Cl)cc1C(=O)Nc1ccc2c(c1)OCCO2	-2.5	23	.	0.68	0.9	-1.4	-5.6

Ordered by SMILES length (highest first): part of the list above.
SMILES	HNF4A DNA FP	B2AR ag	Vif A3G	E coli growth	UCH37 DUB inh	A1 inh	LANA-H2A inh
COc1ccc(Nc2nc(N)c([N+](=O)[O-])c(N3CCOCC3)n2)cc1	-1.7	4	24%	0.58	11	-1.1	-5.6
CC(C)Sc1nc(N2CCOCC2)c2c(c1C#N)CC(C)(C)N(C)C2	-3.4	1	13%	0.77	0.9	1.4	-1.7
CCc1ccc(NC(=O)CSc2nc3ccccc3nc2N2CCCC2)cc1	1.6	0	.	0.81	-3.5	-0.1	1.3
Cc1cccc2cc(COC(=O)c3cccnc3)c(=O)[nH]c12	-4.4	-3	2%	0.73	2.9	-1.3	-2.8
COc1ccc(Cl)cc1C(=O)Nc1ccc2c(c1)OCCO2	-2.5	23	.	0.68	0.9	-1.4	-5.6
NC(=O)C1CCN(C(=O)NC(=O)c2ccccc2)CC1	-1.6	3	1%	0.71	1.0	-0.2	3.3
Cn1c(N)c(C(=O)Nc2ccccc2F)sc1=S	0.1	-5	3%	0.67	11	1.0	-3.6
